Source: PubChem BioAssay
N370S GC mod: N370S glucocerebrosidase modulation, Gaucher chaperone candidate | N370S GC spleen homogenate, 4MU-glucoside fluorescence | Potency, µM (series often up to 59.4 µM), without a hit: at the top dose activity change, negative = inhibition, usual class: inhibitors | 0.092% of 330,000 active;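 also: 0% = full enzyme activity and -100% = no enzyme basal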
GCN5L2 inh: blocks human GCN5L2 histone acetyltransferase. AID 504327. GCN5L2 HAT assay, ThioGlo1 CoA-SH fluorescence. Potency, µM (top dose mostly 58.9 µM), for the others: at the top dose activity change, negative = inhibition, most hits filed as inhibitors. 0.21% of 390,000 active. Q92830
Target sequence (Q92830 whole entry, looked up): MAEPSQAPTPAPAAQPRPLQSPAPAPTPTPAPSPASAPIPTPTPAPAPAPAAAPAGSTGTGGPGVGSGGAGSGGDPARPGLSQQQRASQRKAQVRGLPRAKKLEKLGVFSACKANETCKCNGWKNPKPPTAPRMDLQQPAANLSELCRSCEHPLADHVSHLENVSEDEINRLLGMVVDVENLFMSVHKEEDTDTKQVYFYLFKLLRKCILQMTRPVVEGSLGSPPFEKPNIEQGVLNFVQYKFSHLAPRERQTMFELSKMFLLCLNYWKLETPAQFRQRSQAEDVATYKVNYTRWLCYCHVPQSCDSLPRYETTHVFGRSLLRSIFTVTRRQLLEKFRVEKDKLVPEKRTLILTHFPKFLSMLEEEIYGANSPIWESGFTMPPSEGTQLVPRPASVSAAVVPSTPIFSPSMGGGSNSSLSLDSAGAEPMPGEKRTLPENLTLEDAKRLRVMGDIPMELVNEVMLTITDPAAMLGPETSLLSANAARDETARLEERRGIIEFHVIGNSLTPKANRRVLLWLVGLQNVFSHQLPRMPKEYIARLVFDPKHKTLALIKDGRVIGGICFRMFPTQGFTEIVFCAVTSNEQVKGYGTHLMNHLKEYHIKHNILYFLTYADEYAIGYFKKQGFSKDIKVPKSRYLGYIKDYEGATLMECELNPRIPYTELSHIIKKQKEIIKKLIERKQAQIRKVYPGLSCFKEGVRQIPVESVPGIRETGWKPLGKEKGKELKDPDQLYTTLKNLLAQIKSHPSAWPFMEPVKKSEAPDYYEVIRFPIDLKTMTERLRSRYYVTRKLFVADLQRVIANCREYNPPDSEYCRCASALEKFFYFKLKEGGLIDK
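Titration-based screen in which CoA formation is detected via maleimide probe ThioGlo1 (50uM) turning fluorescent on thiol reaction; substrates H3(1-25) 75uM and acetyl-CoA 70uM, GCN5L2 20nM, 20 min incubation at room temperature.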
Numbers without * were called inactive; ? = inconclusive; / = not tested or not shown; [ ] = dose if it differs, or a comment. Calls follow the shape of the dose curve; as a rule, active = well fitted curve in the direction sought with a large enough effect; inconclusive = small, poorly fitted or top-dose-only effect, or another doubt; inactive = no such curve, though single readings can be large; an effect the other way counts as inactive or inconclusive. Unless noted, % is scaled to controls: 0 for no effect and ±100 for the full control effect; potency is read from the fitted curve at half-maximal effect.

SMILES	N370S GC mod	GCN5L2 inh
Cc1ccccc1NC(=O)c1ocnc1C	2%	1%
Cc1ccc(S(=O)(=O)n2cc(-c3ccccc3)c(N)n2)cc1	8%	-10%
COc1ccccc1NC(=O)CSc1nnc(CCC(=O)Nc2ccccc2F)n1C	5%	35µM*
O=C(NNc1nc2c(F)cc(F)cc2s1)C1=COCCO1	-2%	-7%
COc1cccc(NC(=O)C(=O)NCCC2CCCCN2S(=O)(=O)c2ccccc2)c1 (stereo not drawn)	3%	-7%
COc1ccc(N(CC(=O)N2CCCCCC2)S(C)(=O)=O)cc1Cl	-4%	-9%
CCOc1cc(S(=O)(=O)N2CCCC2)ccc1Cl	4%	-3%[0.501 µM]
CC1(C)CC2CC(C)(CN2C(=O)c2cc(-c3ccc(F)cc3)on2)C1 (stereo not drawn)	7%	-4%
CC1(C)Cc2cccc(OCC(=O)NCCOc3ccccc3)c2O1	10%	-4%
CCOc1ccc(C(=O)OCc2cc(=O)n3nc(C(C)C)sc3n2)cc1	/	-6%
CCCOc1ccc(CCCN=C(N)N)cc1Cl	-12%	-6%
NC(=O)C1(N2CCCCC2)CCN(C(=S)NCCc2ccccc2)CC1	-11%	-1%
CCOc1ccc(N2CC(O)(c3ccc(F)cc3)[N+]3=C2CCCC3)cc1 (stereo not drawn)	4%	-3%
Cc1cc(C)c(NC(=O)CCCN2CCCC2)c(C)c1	-15%	-1%
c1cncc(-c2ccnc3ncnn23)c1	-16%	1%
CC(=O)c1ccc(N2CCN(S(=O)(=O)c3cc4c(cc3C)NC(=O)CO4)CC2)cc1	-3%	-14%
COc1ccc2oc(-c3ccc(NC(=O)c4ccc(N5CCOCC5)c([N+](=O)[O-])c4)cc3)nc2c1	2%	40%[activator]
Cc1nn(Cc2ccccc2Cl)c(C)c1C(=O)N1CCN(c2ccccc2)CC1	-8%	-3%
O=C(Cn1nc([N+](=O)[O-])nc1Br)NC1CCCCC1	-6%	-1%
O=C(OCCOCCN=C1NS(=O)(=O)c2ccccc21)c1ccccc1Br	-10%	-8%
CCC1CCCCN1CCCNC(=O)Cn1ncc2c(C)n(Cc3ccccc3Cl)c(C)c2c1=O (stereo not drawn)	-11%	-1%
CCOc1ccc(S(=O)(=O)NCC2(N3CCCCC3)CCCCC2)cc1	-7%	-4%
COC(=O)c1cc(NC(=O)CSc2nncn2C)cc(C(=O)OC)c1	21%	-21%
COc1ccc(C(=O)NCc2cn3c(C)csc3n2)cc1OC	4%	0%
COCCCNC(=O)Cc1ccc(-n2c(C)nc3cccnc32)cc1	-14%	2%
CC1(C)CC(=O)C(C=Nc2cccnc2)=C(O)C1	8%	0%
Cc1ccc(-c2nc(S(=O)(=O)c3ccc(F)cc3)c(SCC(=O)NCC3CCCO3)o2)cc1 (stereo not drawn)	7%	-2%
Cc1ccc(N(CC(=O)Nc2ccc3c(c2)OCCO3)S(=O)(=O)c2c(C)noc2C)cc1	2%	-14%
COc1cc(CC(=O)OCC(=O)N2CCCCC2C)cc(OC)c1OC (stereo not drawn)	-4%	-2%
O=C(Nc1nnc(C2=COCCO2)o1)c1cccc([N+](=O)[O-])c1	2%	0%
COc1ccc(NC(=O)COc2ccc(Br)cc2)c(OC)c1	6%	-5%
CCOC(=O)c1ccc(N=C2SC(C(=O)NC)CC(=O)N2Cc2ccc(F)cc2)cc1 (stereo not drawn)	6%	-5%
O=C(COC(=O)c1ccc(Br)o1)NCc1cccs1	2%[12.8 µM]	-3%
CCOc1ccc(N(CC(=O)NCc2ccc(OC)cc2)S(=O)(=O)c2c(C)noc2C)cc1	5%	-1%
Cc1cccnc1CCNCc1c(C(=O)N2C[C@@H](C)O[C@@H](C)C2)nc2ccc(Cl)cn12	-4%	-8%
Cc1ccc(NC(=O)CN2C(=O)N/C(=C/c3cccn3-c3ccc(C(=O)O)cc3)C2=O)cc1	-5%	?
O=C(CCC(=O)c1ccccc1)NCCOc1ccccc1	4%	-7%
NS(=O)(=O)c1ccc(CCNCC(=O)NC2CC2)cc1	-8%	0%
C/C=C/c1ccc(OCCCCN2C(=O)NC(C)(C)C2=O)c(OC)c1	3%	1%
O=C(N/N=C/c1ccccc1[N+](=O)[O-])c1ccc2c(c1)OCCO2	-9%	-24%
O=C(CSc1nnc(-c2ccccn2)o1)Nc1ccccc1C(F)(F)F	0%	-3%
O=C(CCc1ccccc1)N/N=C\c1cc2c(cc1Br)OCO2	0%	3%
COCCSc1ccccc1C(=O)Nc1cc([N+](=O)[O-])ccc1OC	9%	-4%
Brc1ccccc1OCCCn1cnc2ccccc21	6%	-6%
O=C(Cc1cccc(NC(=O)C2CCN(C(=O)CCc3ccccc3)CC2)c1)Nc1cccc(C(=O)N2CCCC2)c1	/	-5%
COc1ccc(C2CC(=O)C3=C(C2)Nc2ccccc2N(C(=O)CCC(=O)O)C3c2ccc(F)cc2)cc1 (stereo not drawn)	-31%	?
COc1ccc(CNC(=O)CN(C)Cc2ccc(C(C)(C)C)cc2)cc1	8%	-24%
Nc1nnc(SCCN2C(=O)c3ccccc3S2(=O)=O)s1	0%	1%
Cc1cc(C(F)(F)F)cc(NNC(=O)NC(=O)c2ccc(Cl)cc2)n1	-6%	-14%
Cc1ccc(C(=O)O/N=C\c2ccc(N3CCOCC3)c([N+](=O)[O-])c2)cc1	12%	-1%
O=C(CCSCc1ccccc1Cl)NCc1ccco1	-25%	-8%
CC(C)CCCN1CCN=C1N(C)C	-2%	0%
O=C1CC(c2cc(Br)ccc2F)c2cc3c(cc2N1)CCC3 (stereo not drawn)	6%	22%
COc1ccc(S(=O)(=O)Nc2ccccc2N2CCOCC2)cc1OC	/	-5%
O=C(C1CCCN1S(=O)(=O)c1ccc(Cl)cc1)N1CCCCC1 (stereo not drawn)	-25%	-1%
Cc1c(C(=O)NCC(C)C)sc2nc(-c3ccc(F)cc3)cn12	1%	-8%
CC(C)CN(C(=O)COC(=O)CCSc1ccc(F)cc1)c1c(N)n(Cc2ccccc2)c(=O)[nH]c1=O	0%	-3%
CCOc1ccc(OC(=O)c2cccc(S(=O)(=O)N3CCN(C)CC3)c2)cc1	-30%	-7%
O=C(NCc1ccc2c(c1)OCO2)c1cc(=O)[nH]c2ccccc12	6%	-22%
COC(=O)C1=C(C)N(C)C(=S)NC1c1cc(OC)ccc1OC (stereo not drawn)	-1%	-1%

Other structures.
SMILES	N370S GC mod	GCN5L2 inh
O=C(N/N=C/c1ccncc1)c1ccc2c(c1)OCO2	-11%	-4%
Cc1nc(Oc2ccc(F)cc2Cl)c2oc3ccccc3c2n1	/	-6%
CCOc1ccccc1Nc1ncnc2c1cnn2-c1ccc(C)cc1	/	1%
COc1ccc(C(=O)OCc2nnc(-c3ccccc3)o2)cc1S(=O)(=O)N1CCOCC1	-8%	-20%
CCCOc1ccc(-c2c(C(=O)N/N=C(\C)COc3ccccc3)nnn2-c2nonc2N)cc1	-20%	-6%
COc1ccccc1NS(=O)(=O)c1c(C(=O)N2CCCC2)c(C)n(C)c1C	?	?
CC(=O)n1cc([C@H]2C=C(C(=O)Nc3ccccc3)O[C@@H](OCCCCO)C2)c2ccccc21	27%	-12%
COCCCNC(=O)CSc1nc2sc(C(=O)OC)c(C)c2c(=O)n1N	-8%	-3%
COc1cccc(NC(=O)CN2C(=O)NC3(CCCCCC3)C2=O)c1	/	-2%
O=C(CSc1nnc(NC(=O)c2ccccc2C(=O)O)s1)Nc1ccccc1Cl	-4%	-6%
COc1ccc(CCNC(=O)Nc2cccc([N+](=O)[O-])c2)cc1OC	6%	0%
O=C(Cn1ncc2c3ccccc3n(Cc3ccccc3)c2c1=O)NCCN1CCOCC1	-6%	-3%
Cc1cccc(NC(=O)NC2CC(=O)N(c3ccc4c(c3)OCCO4)C2)n1 (stereo not drawn)	-8%	-5%
Cc1cc(C)nc(NC(=NCCc2c[nH]c3ccccc23)NC(=O)Nc2ccc(Cl)cc2)n1	-5%	-8%
Nc1c(C(=O)NCC2CCCO2)c2nc3ccccc3nc2n1-c1ccccc1 (stereo not drawn)	?	-16%
O=C(COc1ccccc1)N1CCN(c2ccccc2)CC1	-23%	-2%
CC(C)n1cc(-c2nc(C(=O)NN)cs2)c(=O)n(Cc2ccccc2)c1=O	24%	-1%
CCCSCCCNC(=O)c1ccc2nc(Cc3ccccc3)oc2c1	/	-7%
CCc1cccc(CC)c1NC(=O)c1c(C)oc2ccc(O)c(CN3CCN(C)CC3)c12	/	-1%
CCOc1ccc2nc(SCC(=O)Nc3cccc(S(=O)(=O)NC4=NCCCCC4)c3)[nH]c2c1	0%	-9%
O=C(NCc1ccco1)C(=O)c1cn(CC(=O)N2CCCCCC2)c2ccccc12	1%	-7%
CCN(C(=O)CSc1nc2n[nH]c(C)c2c(=N)n1-c1ccc(Cl)c(C)c1)c1cccc(C)c1	4%	-20%
COc1cccc(CNc2nc3c(-c4ccccc4)nnn3c3ccccc23)c1	/	-16%
COc1ccc(NC(=O)Nc2nnc(Cc3ccc(OC)c(OC)c3)s2)cc1	0%	?
O=C(NCc1ccc2c(c1)OCO2)c1nnc(Cc2ccc(Cl)cc2)o1	4%	1%
CCOC(=O)N1CCN(CC(=O)Nc2ccc(F)c(F)c2)CC1	8%	-7%
CC(C)Oc1ccc(C(CC(=O)O)NC(=O)c2cccs2)cc1 (stereo not drawn)	-3%	-10%
O=C(CSc1nnc(NC(=O)c2c(F)cccc2F)s1)NC1CCCCC1	4%	-5%
CC1(C)Cc2cccc(C(=O)NC3CCN(Cc4ccccc4)CC3)c2O1	-1%	1%
Cc1nc(-c2ccc(F)cc2)c(CC(=O)Nc2ccc(C)c(S(=O)(=O)N3CCOCC3)c2)s1	-20%	-7%
CC1OC(OC2C(CO)OC(OC3C(CO)OC(O)C(O)C3O)C(O)C2O)C(O)C(O)C1N[C@@H]1C=C(CO)[C@@H](O)C(O)[C@H]1O (stereo partly drawn)	8%	-2%
CC1CCCC(C)N1C(=O)/C=C/c1ccc(S(=O)(=O)N2CCOCC2)cc1 (stereo not drawn)	-14%	2%
CNc1nc(N)c(C(=O)C(C)(C)C)s1	-1%	-5%
CCC(C)OC1OC(CO)C(O)C(O)C1NC(C)=O (stereo not drawn)	6%	2%
COc1ccc(NC(=O)COC(=O)C2=COCCO2)cc1OC	3%	-4%
CN(CC1CCCO1)S(=O)(=O)c1ccc(C(=O)Nc2nc(-c3ccccn3)cs2)cc1 (stereo not drawn)	-8%	1%
Cc1ccc(S(=O)(=O)CCC(=O)NCc2ccccc2F)cc1	-1%	-4%
CCC(=O)Nc1nc2c(s1)COc1ccccc1-2	22%	-5%
COCCN(C(=O)CSc1nc2ccc(C)cc2[nH]1)c1c(N)n(Cc2ccccc2)c(=O)[nH]c1=O	5%	-1%
CCN(CC(=O)Nc1c(F)cccc1F)C(=O)c1ccc2ccccc2n1	-11%	-2%
COc1cc2c(cc1OC)C(C)N(C(=O)c1ccc(Cl)c(S(=O)(=O)N3CCCCC3)c1)CC2 (stereo not drawn)	-1%	?
CC(C)(C)CC(=O)NCc1cccs1	7%	-12%
O=C(O)CC1S/C(=N\N=C/c2ccccc2)N(c2ccc(O)cc2)C1=O (stereo not drawn)	-1%	-9%
CCc1ccc(-n2c(SCC(=O)c3ccc4c(c3)NC(=O)CO4)nc3ccccc3c2=O)cc1	10%	0%
O=C(O)C1Cc2ccccc2CN1C(=O)CCl (stereo not drawn)	3%	3%
O=C(Nc1cccc(Cl)c1)c1ccc(Cn2cc(Cl)cn2)cc1	8%	19%
Cc1nc(C(C)N(C)Cc2nc(-c3ccc4c(c3)OCO4)no2)c(C)s1 (stereo not drawn)	-6%	-20%
COc1ccc(OC)c(S(=O)(=O)N2CCN(C(=O)NC3CCCCC3)CC2)c1	/	-2%
CCCCOc1cccc(C(=O)NNC(=S)NC2CCCCC2)c1	1%	-5%
Cc1ccc(NC2CCCN(C(=O)c3cccc(-c4ncc[nH]4)c3)C2)cc1C (stereo not drawn)	3%	-15%
CS(=O)(=O)c1ccc2nc(NC(=O)c3ccc(Cl)nc3)sc2c1	-28%	-11%

Grouped by structure: those above with an aryl thioether with sulfur outside any ring.
SMILES	N370S GC mod	GCN5L2 inh
COc1ccccc1NC(=O)CSc1nnc(CCC(=O)Nc2ccccc2F)n1C	5%	35µM*
COC(=O)c1cc(NC(=O)CSc2nncn2C)cc(C(=O)OC)c1	21%	-21%
Cc1ccc(-c2nc(S(=O)(=O)c3ccc(F)cc3)c(SCC(=O)NCC3CCCO3)o2)cc1 (stereo not drawn)	7%	-2%
O=C(CSc1nnc(-c2ccccn2)o1)Nc1ccccc1C(F)(F)F	0%	-3%
COCCSc1ccccc1C(=O)Nc1cc([N+](=O)[O-])ccc1OC	9%	-4%
Nc1nnc(SCCN2C(=O)c3ccccc3S2(=O)=O)s1	0%	1%
CC(C)CN(C(=O)COC(=O)CCSc1ccc(F)cc1)c1c(N)n(Cc2ccccc2)c(=O)[nH]c1=O	0%	-3%
COCCCNC(=O)CSc1nc2sc(C(=O)OC)c(C)c2c(=O)n1N	-8%	-3%
O=C(CSc1nnc(NC(=O)c2ccccc2C(=O)O)s1)Nc1ccccc1Cl	-4%	-6%
CCOc1ccc2nc(SCC(=O)Nc3cccc(S(=O)(=O)NC4=NCCCCC4)c3)[nH]c2c1	0%	-9%
CCN(C(=O)CSc1nc2n[nH]c(C)c2c(=N)n1-c1ccc(Cl)c(C)c1)c1cccc(C)c1	4%	-20%
O=C(CSc1nnc(NC(=O)c2c(F)cccc2F)s1)NC1CCCCC1	4%	-5%
COCCN(C(=O)CSc1nc2ccc(C)cc2[nH]1)c1c(N)n(Cc2ccccc2)c(=O)[nH]c1=O	5%	-1%
CCc1ccc(-n2c(SCC(=O)c3ccc4c(c3)NC(=O)CO4)nc3ccccc3c2=O)cc1	10%	0%

An excerpt; most or all hits stand in other tables.
